NPYLR7 agonist – agonists of mosquito NPYLR7 receptor, primary screen, cell-based, Aedes aegypti, calcium fluorescence, mosquito biting behavior | 0.15% of 270,000 active | Aedes aegypti neuropeptide Y-like receptor 7 (NPYLR7) | activation, % at 10 µM | HEK293T NPYLR7/Galpha15, GCaMP6s calcium fluorescence | AID 1259423, 2018; in the data active means activation above about 40%;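 further: 0% = vehicle and 100% = reference agonist at the receptor; some compounds past the cut are filed as inactive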
NPYLR7 agonist max-min – also measured in NPYLR7 agonist; calls as there; activation, %; measured here: Max-Min RFU normalised activation; some inactives read as strong as hits;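 span of the calcium signal over five minutes; 0% = vehicle and 100% = native peptide agonist; compound fluorescence can raise it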
Starred values were filed as active, the others as inactive; i = inactive; & = joins results of further samples. Some of the compounds tested; the hit share may differ from the screen's.

SMILES | NPYLR7 agonist | NPYLR7 agonist max-min
COCCOc1cccn2c(N(C)C(=O)CCC3CCCC3)c(C)nc12 | -2 | -1
O=C(Nc1ccc([N+](=O)[O-])cc1)c1nn(-c2ccccc2)cc1N=Cc1cccc(O)c1 | -1 | -7
COC(=O)c1cc(OCc2ccc(C#N)cc2F)cc(C(=O)OC)c1 | 4 | 1
Cc1cc2oc3c(c2cc1NS(=O)(=O)c1cccs1)CCCC3 | -3 | -4
CCOC(=O)C1(Cc2ccccc2C)CCCN(S(=O)(=O)c2cccs2)C1 (stereo not given) | -1 | -6
COc1ccc(C2(C(=O)N3CCCC(c4ccn[nH]4)C3)CCCC2)cc1 (stereo not given) | 2 | 1
COc1ccc(OC)c(-c2c(=O)n(O)c3ccccc3[n+]2[O-])c1 | 0 | -7
Cc1[nH]n2c(=O)c3c(nc2c1-c1ccc(Cl)cc1)CCCC3 | -11 | -16
CCOc1ccccc1N1CCN(C(=O)c2cc(-c3cccc(F)c3)n3nc(C(C)(C)C)cc3n2)CC1 | 13 | 13
O=C(Cc1n[nH]c(=O)c2ccccc12)N1CCOC(c2ccc(Br)cc2)C1 (stereo not given) | 12 | 10
Cc1cccn2c(=O)c3cc(C(=O)N4COCC4(C)C)sc3nc12 | -6 | -4
COc1ccc(OC)c(NC(=O)c2ccc(OC)c([N+](=O)[O-])c2)c1 | -7 | -10
Cc1nc(CCC(=O)N2CCCC3(CCCN(Cc4ccccc4)C3)C2)n[nH]1 (stereo not given) | -1 | -3
O=C(N=Nc1c(O)[nH]c2ccc(Br)cc12)c1ccccc1 | -4 | -11
COCCC(=O)NC(Cc1ccccc1)c1cccs1 (stereo not given) | 6 | 3
Cc1nnc(NC(=O)N2CCN(Cc3ccccc3F)C(=O)C2)s1 | -1 | -7
CCC(C)(C)NC(=O)CSc1nnc(NCc2ccc(OC)cc2)s1 | 3 | 1
Cc1nc(NC(=O)CCN2CCSC2=O)sc1Cc1ccc2c(c1)OCO2 | 1 | -1
CCOC(=O)Cc1csc(=Nc2ccccc2C)n1CCO | -9 | -12
Cc1cccc(OC(C)C(=O)NNC(=O)c2ccccc2SCc2cscn2)c1C (stereo not given) | 0 | 14
C#CCN1CCC(C(=O)N(CCN(C)C)Cc2cccnc2)CC1 | 7 | 5
O=C(/C=C/c1ccc(O)c(O)c1)O[C@@H]1C[C@](O)(C(=O)O)C[C@@H](O)[C@H]1O | -4&-4 | -13&-8
CCOC(=O)C(=O)NC(C)C(c1cccs1)N1CCN(c2ccccc2)CC1 (stereo not given) | -4 | -1
CNC(=O)C(C)N(C)Cc1ccc(C(C)=O)cc1 (stereo not given) | 4 | 0
CCN(C)S(=O)(=O)NCC1CCN(Cc2ccccc2C)CC1 | 10 | -5
CCN(CC)S(=O)(=O)c1ccc(C(=O)Nc2nnc(C)s2)cc1 | 12 | 15
c1ccc(CCc2nn3c(C4COc5ccccc5O4)nnc3s2)cc1 (stereo not given) | -12 | -21
O=C(c1ccccc1C(F)(F)F)N1CCN(C(c2ccccc2)c2ccc(Cl)cc2)CC1 (stereo not given) | -3 | 7
O=S(=O)(Cc1ccccc1)c1nc2ccccc2[nH]1 | 2 | 0
COc1ccccc1C1CNC(=O)c2nc(-c3n[nH]c4c3CCC4)[nH]c2C1 (stereo not given) | 21 | 8
O=C(OCc1cc(=O)oc2ccc3ccccc3c12)c1cc2ccccc2o1 | 14 | 7
CCOc1ccc(CC(=O)Nc2c3c(nn2C(C)(C)C)CSC3)cc1 | -2 | -8
CSC(C)c1cccc(NC(=O)N(C)CCC(C)O)c1 (stereo not given) | 5 | 2
CN(C)c1ccc(N2CC(=O)C(c3nc(-c4cccc(Cl)c4)cs3)C2=N)cc1 (stereo not given) | 6 | 0
CN1CCCCCC1C(=O)N1CCC(N2CCC(C(=O)N3CCOCC3)CC2)CC1 (stereo not given) | 2 | -1
Cn1c(SCC(=O)N2CCCc3ccccc32)nnc1-c1ccco1 | -1 | -6
O=C(/C=C/c1ccc2c(c1)OCCO2)NS(=O)(=O)c1ccc(Cl)cc1F | 6 | 5
Cc1ccc(F)c(NC(=O)COc2ccccc2-c2ccccc2)c1 | 0 | -3
COc1cccc(C=C2N=C(c3ccc(OC(F)F)cc3)OC2=O)c1OC(F)F | 1 | 3
COCCCN(C(=O)Cc1ccsc1)c1c(N)n(Cc2ccccc2)c(=O)[nH]c1=O | -1 | 23

Shown with each value named: part of the list above
O=C(/C=C/c1ccc2c(c1)OCCO2)NS(=O)(=O)c1ccc(Cl)cc1F
- NPYLR7 agonist: 6
- NPYLR7 agonist max-min: 5

CCOc1ccc(CC(=O)Nc2c3c(nn2C(C)(C)C)CSC3)cc1
- NPYLR7 agonist: -2
- NPYLR7 agonist max-min: -8

CN1CCCCCC1C(=O)N1CCC(N2CCC(C(=O)N3CCOCC3)CC2)CC1 (stereo not given)
- NPYLR7 agonist: 2
- NPYLR7 agonist max-min: -1

Cn1c(SCC(=O)N2CCCc3ccccc32)nnc1-c1ccco1
- NPYLR7 agonist: -1
- NPYLR7 agonist max-min: -6

Carrying on:
SMILES | NPYLR7 agonist | NPYLR7 agonist max-min
CC1=C(C(=O)OCc2ccccc2)C(c2cccc(I)c2)NC(=O)N1 (stereo not given) | -2 | -4
CC(=O)Nc1ccc(Nc2ncnc3sc4c(c23)CCCC4)cc1 | 9 | 3
O=C(Nc1cccc(C(F)(F)F)c1)N(Cc1ccccc1)Cc1ccco1 | 10 | 19
Clc1ccccc1-n1ncc2c1ncn1nc(-c3ccco3)nc21 | 2 | 0
Cn1ccnc1Sc1ccc(S(=O)(=O)C(F)(F)F)cc1[N+](=O)[O-] | 21 | 13
CC(=O)N1CCC2(CC1)NCCc1[nH]cnc12 | -1 | -7
COc1ccc2nc(SCC(=O)Nc3ccc(S(N)(=O)=O)cc3)[nH]c2c1 | -9 | -15
CCCN1CCC(C)(C(=O)Nc2ccc3scnc3c2)C1 (stereo not given) | 1 | -1
COc1ccc(OC2CCN(C(C)=O)CC2)c(C(=O)NCC(C)c2ccccc2)c1 (stereo not given) | 7 | 4
Cc1cccc(NC(=O)N(C)C(c2ccc(Cl)cc2)c2cccnc2)c1 (stereo not given) | -6 | i
Cc1cccc2c(-c3ccc(Cl)c(C(N)=O)c3)c[nH]c12 | 9 | 5
C(=Nn1c(-c2ccccc2)csc1=NC1CCCCC1)c1ccccn1 | -7 | -13
Cc1cc(C)cc(-n2c(SCC(=O)NCc3ccc(F)cc3)nc3c(c2=O)SCC3)c1 | -5 | -7
CCc1cnc2c(c1SCC(=O)Nc1nc3ccccc3s1)c(=O)n(C)c(=O)n2C | 7 | 12
COCCCN(CC(=O)N1CCc2sccc2C1COc1cccc(OC)c1)C(=O)c1ccccc1OC (stereo not given) | -4 | 2
CC(C)C(=O)N1CC(C(=O)NCc2ccccc2)C(c2cccc(C(F)(F)F)c2)C1 (stereo not given) | -12 | -14
Cc1ccc(NC(=O)N2CCC3(CC2)SCCN3C(=O)c2ccc(F)cc2)c(C)c1 | 0 | 8
CS(=O)(=O)Cc1ccc(F)cc1CNCC1CC2C=CC1C2 (stereo not given) | -1 | -2
COc1ccc(C(=O)N2CCC(O)(c3ccc(C)cn3)CC2)c(F)c1F | 1 | 2
COc1ccc2nc(C)cc(C(=O)NCC(O)c3ccsc3)c2c1 (stereo not given) | 2 | 17
O=C(CCN(CCc1ccccc1)c1nc(-c2ccc(F)cc2)nc2cc(Cl)ccc12)NC1CC1 | 2 | 17
O=C(NC1C2COCC1CN(CC1CC1)C2)c1cncs1 (stereo not given) | 5 | 0
CN(Cc1ccccc1)C(=O)CCC1CCN(C2CCSC2)CC1 (stereo not given) | 0 | -2
CN(C)CC1(O)CCN(C(=O)CCCCc2ccccc2)C1 (stereo not given) | 7 | 4
COc1cccc(C(=O)OCc2nc(-c3cccs3)no2)c1O | 22 | 13
CNc1ccc(C(=O)N2CCN(S(=O)(=O)c3ccc4c(c3)CCCC4)CC2)cc1[N+](=O)[O-] | -1 | 1
O=C(NC1CCN(C(=O)c2cc(-c3cccc(Cl)c3)n[nH]2)CC1)C1CCCCC1 | -10 | -12
CCc1cc(N2CCC3(CC2)CNC(=O)O3)nc(N2CCOCC2)n1 | 8 | 9
O=S(=O)(c1cccs1)N1CCN(c2nc(C(F)(F)F)nc3ccccc23)CC1 | 7 | 6
CC(C)c1cc(C(=O)N2CCc3c(nc(N(C)C)[nH]c3=O)C2)no1 | -2 | -7
O=C1CC2(CCCC2)C(=O)N1CN1CCN(S(=O)(=O)c2cc(F)ccc2F)CC1 | 7 | 9
COc1cc(OC)c(C2=CCN(C(=O)C(C)C)CC2)c(OC)c1 | 15 | 7
Cc1nc(-c2ccncc2)nc(Nc2cn[nH]c2)c1C | 0 | -2
COc1ccc(NC(=O)C(C2CCCC2)N2CCN(C(=O)c3ccc(C)c([N+](=O)[O-])c3)CC2)cc1 (stereo not given) | -2 | 15
O=C(CN1CCN(Cc2csc3ccccc23)CC1)Nc1ccccc1F | -1 | 0
COc1ccc(OC)c(NC(=O)CSc2nc(=O)n(CCN(C)C)c3c2CCC3)c1 | -1 | -6
CC(C)CC(NS(=O)(=O)c1cc(C(N)=O)n(C)c1)c1cccs1 (stereo not given) | 2 | -1
COCCn1ccc2c(OCC(=O)c3ccccc3)cccc2c1=O | -2 | 23
O=C(CCl)Nc1nc(-c2c[nH]c3ccccc23)cs1 | -9 | -9
O=C(NCc1cccc(OC(F)F)c1)c1sc2cc(F)ccc2c1Cl | 7 | 7

Single records, from the list above:
Record of COc1cc(OC)c(C2=CCN(C(=O)C(C)C)CC2)c(OC)c1 : NPYLR7 agonist: 15; NPYLR7 agonist max-min: 7
Record of O=C(CN1CCN(Cc2csc3ccccc23)CC1)Nc1ccccc1F : NPYLR7 agonist: -1; NPYLR7 agonist max-min: 0

(continued)
SMILES | NPYLR7 agonist | NPYLR7 agonist max-min
CC(=O)Oc1ccc2c(=O)c(Oc3ccc(Cl)cc3Cl)c(C(F)(F)F)oc2c1 | -3 | -6
CCC(C)N(CC(=O)N(Cc1cccn1Cc1ccccc1Cl)C1CCCCC1)S(=O)(=O)c1ccc(OC)cc1 (stereo not given) | 0 | 11
CCOC(=O)c1c(NC(=O)c2ccccc2)sc(C(=O)NC)c1C | -4 | -5
CC(C)n1nccc1NC(=O)c1ccc(Cl)c(S(=O)(=O)NC2CC2)c1 | -1 | 1
Cc1ccccc1NC(=O)c1ccc2c(c1)S(=O)(=O)N(C1CC1)C2=O | -15&13 | -17&10
CN(C)CCCN1C(=O)C(O)=C(C(=O)c2cccs2)C1c1ccc(Cl)c(Cl)c1 (stereo not given) | 9 | 13
COc1cc(C(=O)C=Cc2cc(OC)c(O)c([N+](=O)[O-])c2)ccc1O | -8 | -13
CCC(C)N(Cc1cc(NC(=O)C2CCC2)ccc1N(C)C)C(=O)NC(C)(C)C (stereo not given) | -8 | -6

Source: PubChem (Fisher Drug Discovery Resource Center)
